Bioassay records from PubChem BioAssay.
NPYLR7 agonist: activates Aedes aegypti NPYLR7 receptor; HEK293T NPYLR7/Galpha15, GCaMP6s calcium fluorescence; activation, % at 10 µM; 270,000 compounds, 0.15% hits; AID 1259423; in the data active means activation above about 40%;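 further: 0% = vehicle and 100% = reference agonist at the receptor; some compounds past the cut are filed as inactive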
NPYLR7 agonist max-min: further read-out of NPYLR7 agonist, marked with its call; activation, %; measured here: Max-Min RFU normalised activation; some inactives read as strong as hits;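 span of the calcium signal over five minutes; 0% = vehicle and 100% = native peptide agonist; compound fluorescence can raise it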
The depositor's hits bear a star; & = joins results of further samples. These rows are one share of the data. The share of hits here may be higher or lower than overall.

SMILES	NPYLR7 agonist	NPYLR7 agonist max-min
O=C(NCCCc1ccccc1)C1CC=CCC1C(=O)N1CCc2ccccc2C1 (stereo not given)	-16	-20
COC(=O)c1ccc2c(c1)C1CC(C)(O2)N(c2ccc(F)c(F)c2)C(=O)N1 (stereo not given)	-3	-1
O=C(Nc1cc2c(ccc3ccccc32)oc1=O)c1ccc(Cl)cc1	13	14
CCCn1nc(C(=O)Nc2nc3ccc(C)cc3s2)ccc1=O	5	5
CCCc1cc(Cl)n2ncc(-c3ccccc3)c2n1	1	-3
O=C(c1cc2n(n1)CCN(Cc1ccc(Cl)c(Cl)c1)C2=O)N1CCN(C(=O)c2ccco2)CC1	13	7
Cc1ccc(C(C)C)cc2c(C)ccc1-2	-5	-8
O=c1c2cc(Br)ccc2nc(-c2cc(C(F)(F)F)ccc2F)n1Cc1ccccc1	4	1
Fc1cccc(-c2cnnc(NCCC3=CCCCC3)n2)c1	5	0
CC(C)Cc1nc(N2CCN(C(=O)c3ccc(Cl)c(Cl)c3)CC2)c2c(-c3cccc(Oc4ccccc4)c3)noc2n1	-2	-2
O=C(NCCc1cccc(F)c1)c1ccc(SCc2ccccc2)nc1	-5	-7
Cc1ccc(-c2cc(=O)n(CC(=O)NCCc3ccccc3)cn2)cc1	14	4
C=CCn1c(Sc2nc3ccccc3[nH]2)nc2c1c(=O)[nH]c(=O)n2C	-7	-8
O=C1/C(=C/c2ccc(Cl)cc2)C=C(c2ccccc2)N1c1ccccc1O	3	-7
COc1ccc2c(c1)OCC(C(=O)Nc1ccc(C(C)=O)cc1)=C2	4	2
CC(C)N1CCC(C)(C(=O)Nc2cc(C(C)(C)C)nn2C)C1 (stereo not given)	6	6
CC(C)(CNC(=O)Cn1ccnn1)c1ccc(Cl)c(Cl)c1	-14	-12
COC(=O)c1c(OCCc2ccccc2F)cc(=O)n2c1CCN(C(=O)c1ccccc1Cl)CC2	1	0
COc1ccccc1CN(C(=O)CCn1cnc2ccccc21)C1CC1	-2	-2
CCCN(C)c1nc(SCc2ccc(C(=O)NCc3ccccn3)cc2)nc(C)c1C	-4	7
Cc1cc(/C=C2\SC(N)=NC2=O)c(C)n1-c1ccccc1	-1	-9
CC=Cc1ccc(OCCN2C(=O)c3ccccc3C2=O)c(OC)c1	-2	8
COC(=O)c1cc2n(n1)CCCN(Cc1ccc(C3CCCCO3)o1)C2 (stereo not given)	10	9
COCCNC(=O)Cn1nc2c(c1NC(=O)Cc1ccc(F)cc1)CSC2	-2	5
Cc1nc(-c2ccc(CN(C)C3CCCc4ccccc43)cc2)[nH]c(=O)c1C (stereo not given)	12	11
SMILES	NPYLR7 agonist	NPYLR7 agonist max-min
Cc1ccc(C)n1-c1ccc(I)cc1	6	6
CN(CCc1ccccc1)C1CCCN(Cc2cccc3ncccc23)C1 (stereo not given)	5	0
COC(=O)Cn1nc(-c2ccccc2)c2ccccc2c1=O	9	3
CS(=O)CCN1CCN(S(=O)(=O)c2ccc(F)cc2)CC1 (stereo not given)	-1	0
CC(C)c1nn(CC(=O)N2CCc3ccccc32)c(=O)c2c1cnn2-c1ccc(F)cc1	6	3
COc1ccc(-n2nnnc2CNC(=O)Cc2ccc(OC)c(OC)c2)cc1	3	1
CCCC(C)(C)C(=O)N1CCC1(C)C(=O)NS(=O)(=O)c1ccccc1C(F)(F)F (stereo not given)	9	8
Clc1ccccc1/C=N\Nc1nc(N2CCCCC2)nc(N2CCCCC2)n1	10	6
CCOc1ccc(Cc2nnc(N3CCOCC3)[nH]c2=O)cc1	15	7
N#Cc1cc2c([nH]c1=S)CCC2	0	7
CCN1CCN(C(=O)c2ccc(CSc3nnc(C)n3-c3ccccc3OC)cc2)CC1	4	12
C#Cc1ccc(CN2CCC(N3CCC(C(=O)NC(C)C)CC3)CC2)cc1	-4	-6
C=c1oc(C)cc1=C1NN=C(CCC(=O)N2CCN(C3CCCC3)CC2)O1	4	3
CNC(=O)Cc1ccc(-c2c(Cl)cccc2OC)cc1	-1	-5
CCCCCC(C)NC(=O)c1ccc([N+](=O)[O-])s1 (stereo not given)	-1	-2
CC(C)c1ccccc1OC1CC2CCC(C1)N2C(=O)c1ccc(CSc2cccc(C(F)(F)F)c2)cc1 (stereo not given)	14	1
CCOC(=O)NC(Nc1ccc(C)c(C)c1)(C(F)(F)F)C(F)(F)F	1	-1
CC(C)c1nc2cc(C(=O)NCc3ccccn3)ccc2o1	15	8
CCn1ccnc1SC1CC(C)OC1=O (stereo not given)	0	-4
C=CCN(CC(=O)N(CCc1ccccc1)Cc1ccc(C)o1)C(=O)c1ccc(F)cc1	-4	3
COC(=O)C12CC3(C)CC(C)(C1)CC(C(=O)OC)(C3)C2	1	1
CCOc1ncccc1CNC(=O)c1cn(CC2CCCNC2)nn1 (stereo not given)	23	16
CC(CNC(=O)C(F)(F)C(F)F)NC(=O)C(F)(F)C(F)F (stereo not given)	-1	-3
Cc1ccc(CNc2oc(-c3ccc(S(=O)(=O)N(C)C)cc3)nc2C#N)cc1	0	16
COc1ccc(-c2nc3ccc(Br)cn3c2NC2CCCCC2)cc1OC	-1	9
SMILES	NPYLR7 agonist	NPYLR7 agonist max-min
CCOc1cccc(C2Nc3ccccc3C(=O)N2C2CC2)c1OC (stereo not given)	-7	-10
COc1ccc(C2Nc3ccc(Br)cc3C(c3ccccc3)O2)c(OC)c1 (stereo not given)	9	15
CCNC(=S)N(Cc1ccc(F)cc1)Cc1c(-c2ccccc2)noc1N(C)C(C)C	9	13
CC1(C(=O)Nc2cccc(NS(C)(=O)=O)c2)CCN1Cc1ccc(-n2ccnc2)cc1 (stereo not given)	-4	-6
CC(C)C(NC(=O)Cn1cnc(C#N)n1)c1ccc(F)cc1 (stereo not given)	-2	-2
Cn1cc(NC(=O)C(=O)Nc2ccc(-c3ccccc3)cc2)cn1	9	3
CCn1c(C)nc2cc(C(=O)NNC(=O)C3CCCO3)ccc21 (stereo not given)	1	0
CCOC(=O)COc1ccc2c(=O)c(Oc3ccccc3Br)c(C(F)(F)F)oc2c1	-1	-3
CC(=O)NC(Cc1c[nH]c2ccccc12)C(=O)N=c1sccn1C (stereo not given)	-4	-5
O=C(NC1=NCCS1)C1CCN(S(=O)(=O)c2ccc(Br)s2)CC1	11	7
Cc1ccc(Cl)c(C(=O)O)c1NS(=O)(=O)/C=C/c1ccccc1	-1	44
CC(Cc1cnccn1)Nc1nncc(-c2ccc(Cl)cc2)n1 (stereo not given)	-5	-5
Cc1ccc(CN(CCN(C)C)S(=O)(=O)c2ccc3c(c2)CCC(=O)N3)o1	8	7
CCOC(=O)c1nn(-c2ccccc2)c(=O)cc1OS(=O)(=O)c1cc(C)c(C)cc1OC	8	7
O=C1NCC(C(=O)NC2CC2c2cccc(Br)c2)N1 (stereo not given)	8	2
CCCc1nnc(C(=O)N(C)CC(=O)NC)o1	7	-1
CC(C)C(=O)NCCn1ccc2ccccc21	6	3
C=CCN(Cc1ccccc1OCC)C(=O)C1CCC1	4	2
O=C1CCCN1CC(=O)N1CCC(C2CCN(Cc3cccc(F)c3F)CC2)C1 (stereo not given)	21	14
CCC(CC)C(=O)N1CCN(c2nc(N3CCCC3)nc(N3CCCC3)n2)CC1	2	40
CCC(C)(C)NC(=O)C(C)S(=O)(=O)c1nncn1C1CC1 (stereo not given)	12	4
CS(=O)(=O)NCC1CCN(CCCc2ccccc2)C1 (stereo not given)	3	-5
CCN(CC)C(=O)C1CCN(C(=O)c2cc(C)ccc2O)CC1	-18	-20
COc1ccc(Br)c(NC(=O)N2CCOCC2)c1	1	0
Clc1ccc(Nc2nc(-c3ccccc3)c3ccccc3n2)cc1	-9	-16
SMILES	NPYLR7 agonist	NPYLR7 agonist max-min
O=C(NCC12CC3CC(CC(C3)C1)C2)c1ccc2c(c1)OCO2	3	1
CCn1c(C2CC2)n[nH]c1=S	6	4
CCSc1ccc(C(C)NC(=O)N2CCC(NC(C)=O)CC2)cc1 (stereo not given)	-1	-2
O=C(c1cc(=O)n(-c2ccccc2)[nH]1)N1CCOC(C(F)(F)F)C1 (stereo not given)	0	12
O=C(NCC1(O)CCCNCC1)c1cc2ccccc2[nH]c1=O (stereo not given)	4	3
CN1CCN(c2oc(CN3C(=O)c4ccccc4C3=O)nc2C#N)CC1	15	5
CN(Cc1cc2n(n1)CCCNC2)Cc1nc(-c2ccccc2)cs1	-15	-18
O=C(C1CC1)N1CCc2sccc2C1c1ccc(Cl)cc1Cl (stereo not given)	-5	-4
Cn1c(C(=O)N(CC(N)=O)C2CCCC2)cc(Cl)c1Cl	4	2
CCOC(=O)Nc1ccc2c(c1)C(=O)N(C)c1cc(C)ccc1O2	5	0
CNC(=O)CSc1nnc(C(C)N(C)C)n1-c1ccc(Cl)cc1 (stereo not given)	2	-2
Cc1nc(CN2CCN(C(=O)c3nccc4ccccc34)CC2)cs1	10	6
NC(=O)c1ccsc1NC(=O)CN1CCN(Cc2ccc(Br)s2)CC1	0	6
O=S(=O)(NC1CC1c1ccc(F)cc1)N1CCc2ccccc2C1 (stereo not given)	5	1
Cc1ccc(CN(CCc2ccccc2)C(=O)CN(C(=O)CCc2ccccc2)C2CCCCC2)o1	-1	4
COc1ccccc1Cn1c(C(=O)N2CCN(C(=O)c3ccc(F)cc3)C(C)C2)cc2ccsc21 (stereo not given)	38	33
CC(=O)CC1(O)C(=O)N(CCCl)c2ccccc21 (stereo not given)	3	2
O=c1[nH]nc2n(c1=O)CCN2c1ccccc1	-3	1
CC1(C)CC(NC(=O)c2ccc3ccccc3c2)CC(C)(C)N1	18	8
O=C1N(CCc2ccccc2)CCCC1(O)CNCc1ccsc1 (stereo not given)	7	8
COc1cc2oc(=O)c3c(c2cc1Cl)CCCC3	7	9
Cc1ccc(C2(O)CCN(C(=O)c3cc(CC(C)C)[nH]n3)CC2)nc1	8	3
COc1ccc(N2CC(NC(=O)NCCn3ccc4ccccc43)CC2=O)cc1OC (stereo not given)	-7	-3
O=C(O)CCN1C(=O)COc2cc(Br)ccc21	14	13
Clc1nc(SCc2ccccc2)nc2ccccc12	-3	-4

3 entries from above, with values under each structure:
Second line of a record: NPYLR7 agonist	NPYLR7 agonist max-min
- CCOC(=O)Nc1ccc2c(c1)C(=O)N(C)c1cc(C)ccc1O2
    5	0
- COc1cc2oc(=O)c3c(c2cc1Cl)CCCC3
    7	9
- CNC(=O)CSc1nnc(C(C)N(C)C)n1-c1ccc(Cl)cc1 (stereo not given)
    2	-2

Some of these compounds in order of molecular weight, low to high.
SMILES	NPYLR7 agonist	NPYLR7 agonist max-min
Clc1nc(SCc2ccccc2)nc2ccccc12	-3	-4
O=C(O)CCN1C(=O)COc2cc(Br)ccc21	14	13
Cn1c(C(=O)N(CC(N)=O)C2CCCC2)cc(Cl)c1Cl	4	2
O=S(=O)(NC1CC1c1ccc(F)cc1)N1CCc2ccccc2C1 (stereo not given)	5	1
CCSc1ccc(C(C)NC(=O)N2CCC(NC(C)=O)CC2)cc1 (stereo not given)	-1	-2
Cc1ccc(CN(CCc2ccccc2)C(=O)CN(C(=O)CCc2ccccc2)C2CCCCC2)o1	-1	4

Exported with bars between the fields: part of the list above
canonical_smiles | NPYLR7 agonist | NPYLR7 agonist max-min
CC(=O)CC1(O)C(=O)N(CCCl)c2ccccc21 (stereo not given) | 3 | 2
O=c1[nH]nc2n(c1=O)CCN2c1ccccc1 | -3 | 1

(further entries)
SMILES	NPYLR7 agonist	NPYLR7 agonist max-min
CCCCN(C=O)c1c(CC)nc2ccc(C(=O)N(CC)CCN(C)C)cn12	-10	-12
Fc1ccc(F)c(C2c3[nH]c4ccccc4c3CCN2CCCn2cccn2)c1 (stereo not given)	-1	-5
C=CCNC(=O)NC1CC(=O)N(Cc2cccc3ccccc23)C1 (stereo not given)	15	7
CCOC(=O)C1CCCN(C(=O)c2cc(COc3ccccc3SC)on2)C1 (stereo not given)	-3	-6
CCOc1ccc(OCC(=O)NNC(=O)c2cc(OC)c(OC)c(OC)c2)cc1	11	9
Cc1ccc(C(=O)N(C)CCn2cc(C(=O)N3CCSCC3)nn2)cc1F	-11	-13
CCOC(=O)c1c(NC(=O)Cc2cccs2)sc(C(=O)N2CCOCC2)c1C	2	2
O[C@@H]1CN(Cc2ccncc2Cl)CC[C@H]1c1ccc2ccccc2c1	-1	-1
Cc1nc2n(n1)C(=O)C(C(c1cccc(F)c1)N1CCC(C)CC1)S2 (stereo not given)	1	-2
CCOC(=O)c1cnc(SCC(=O)OCC(=O)Nc2cc(Cl)cc(Cl)c2)nc1N	-5	-9
CCOc1ccc(C(=O)Nc2ccc3oc(-c4cccc(F)c4)nc3c2)cc1[N+](=O)[O-]	-7	-5
CCCCn1c(SCc2cc(=O)n3ccsc3n2)n[nH]c1=O	9	14
CN(CC1OCCO1)C(=O)CC1(CC(=O)O)CCCC1	-18	-26
CCOc1ccc(C2NC(=O)NC(C)=C2C(=O)OC(C)C)cc1 (stereo not given)	0	-4
COc1ccc(-n2c(C)c(C)c3c(NC(=O)C4CCCC4)ncnc32)cc1	6	1
CCNc1nc(-c2ccc3c(c2)CCCN3S(C)(=O)=O)cs1	2	2
O=C1c2cccc3c(Cl)ccc(c23)C(=O)N1c1ccc(Cl)cc1	1	-2
CCC1CN(C(=O)c2cc(C(C)C)no2)CCC(=O)N1Cc1ccccc1 (stereo not given)	2	12
COCCS(=O)(=O)N(Cc1ccco1)c1ccc(F)cc1F	-1	-1
O=C(NCc1cccs1)c1ccc(-c2cc(-c3ccc(N4CCCCC4)cc3)n[nH]2)cc1	7	1
Cc1ccc(NC(=O)C2CCCNC2)nc1 (stereo not given)	-6	-7
Cc1noc(C)c1C(C)CNC(=O)Nc1cccc(F)c1 (stereo not given)	3&7	-1&2
CC(=O)N(CN1C(=O)c2cc(Cl)c(Cl)cc2C1=O)c1ccccc1C	5	5
